Source: PubChem (Broad Institute)
STK33 inh: inhibitors of human STK33 kinase; Q9BYT3; purified STK33, MBP phosphorylation, ADP-Glo luminescence; inhibition, % at 10 µM; hit rate 0.073% among 320,000;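 active = inhibition at or above 25%, using the most active replicate where run in duplicate; inactive = inhibition below 25%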
Target sequence (Q9BYT3 whole entry, looked up): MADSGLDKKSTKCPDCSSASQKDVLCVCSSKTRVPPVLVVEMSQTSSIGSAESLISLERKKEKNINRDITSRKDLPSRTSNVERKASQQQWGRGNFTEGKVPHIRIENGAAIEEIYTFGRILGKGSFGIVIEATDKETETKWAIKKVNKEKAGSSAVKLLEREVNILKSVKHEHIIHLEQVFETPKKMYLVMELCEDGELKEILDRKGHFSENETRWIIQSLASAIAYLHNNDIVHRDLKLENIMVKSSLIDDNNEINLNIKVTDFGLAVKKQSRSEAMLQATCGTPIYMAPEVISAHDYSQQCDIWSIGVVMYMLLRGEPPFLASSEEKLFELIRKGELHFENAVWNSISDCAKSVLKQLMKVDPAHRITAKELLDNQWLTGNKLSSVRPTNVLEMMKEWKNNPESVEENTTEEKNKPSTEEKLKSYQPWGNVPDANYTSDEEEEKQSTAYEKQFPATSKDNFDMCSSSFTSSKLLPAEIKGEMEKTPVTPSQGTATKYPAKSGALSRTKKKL
Starred values were filed as active, the others as inactive. Not all compounds are listed, and most or all hits are left out here.

nr	SMILES	STK33 inh
1	CN(CC(=O)Nc1ccc(F)c(F)c1F)C(=O)C1CCN(C(=O)Nc2ccccc2)CC1	-4.3
2	COc1ccc(S(=O)(=O)N2CCN(Cc3cccc(OC)c3)CC2)cc1	-2.4
3	O=C(NCC(c1cccnc1)N1CCN(c2ccc(F)cc2)CC1)C1CCCCC1 (stereo not given)	-0.5
4	CCCCN1C(=O)C(=O)N(CC(=O)Nc2ccccc2C(=O)OCC)C1=O	1.2
5	COc1ccccc1N(C)S(=O)(=O)c1ccc(C(=O)OCC(=O)Nc2ccc(C(N)=O)cc2)cc1	-0.5
6	N#Cc1ccc(COC(=O)CSc2nnc(N)s2)cc1	-1.3
7	Cc1c(C(=O)N2CCOCC2)[nH]c2c1C(=O)CC(c1ccccc1Cl)C2 (stereo not given)	-0.4
8	CC(C)CNC(=O)CC(NCC(C)C)C(=O)O (stereo not given)	-0.7
9	Cc1ccc(NC(=S)N2CCCCCC2)c(C)c1	-1.8
10	CCN(CC)C(=O)CSc1nnc(-c2ccc(F)cc2)n1N	-1.2
11	COc1ccc(NC(=O)c2ncn[nH]2)cc1	-0.5
12	CCNC(=O)N1CCN(CCCC(c2ccc(F)cc2)c2ccc(F)cc2)CC1	-3.0
13	COc1ccc(Br)cc1/C=c1\sc2nc(-c3ccco3)nn2c1=O	-1.4
14	CC(=O)NC(=S)Nc1ccc2oc(=O)ccc2c1	-4.2
15	COc1ccc2[nH]cc(CCNS(=O)(=O)c3ccc(C)cc3)c2c1	-0.5
16	CCN1CCN(C(c2cccs2)C(C)NS(=O)(=O)c2ccc(C)cc2)CC1 (stereo not given)	0.0
17	CN(CC(=O)NCc1ccco1)S(=O)(=O)c1ccc(F)cc1	-0.4
18	Cc1cc(C)c(C2C(C#N)=C(N)Oc3n[nH]c(C)c32)cc1CN1CCCC1 (stereo not given)	-0.2
19	CN1CCC(=NNC(=O)CN(c2cccc(Cl)c2)S(C)(=O)=O)CC1	-1.4
20	CN(c1cccc(NC(=O)CN(c2cccc(Cl)c2)S(=O)(=O)c2ccccc2)c1)S(C)(=O)=O	-0.9
21	O=C(NCCO)/C(=C/c1ccc2c(c1)OCO2)NC(=O)c1ccc(Br)cc1	-1.2
22	CC(=O)c1c(C)n(-c2ccc(C)cc2C)c2ccc(O)cc12	0.3
23	Cc1cccc(NC(=S)NC2CCN(Cc3ccccc3)CC2)c1C	-0.3
24	COc1cccc(OC)c1C(=O)Nc1ccncc1	-0.8
25	CCCOc1ccc(N2C(=O)C3C(C(C)C)NC4(C(=O)c5ccccc5C4=O)C3C2=O)cc1 (stereo not given)	-1.2
26	O=C1CCCc2oc3c(cc(NS(=O)(=O)c4ccc5c6c(cccc46)C(=O)N5)c4ccccc43)c21	-0.4
27	O=C(COc1ccccc1Cl)NCCNC(=O)c1ccccn1	-1.2
28	Cc1cc(=O)n2nc(N3CCCC3C(=O)NCCCN3CC(C)CC(C)C3)sc2n1 (stereo not given)	0.1
29	C=CCn1c(-c2ccc3[nH]c(C)c(C)c3c2)n[nH]c1=S	-0.2
30	COCCn1c(C)cc(C(=O)CSc2nc(C)c(C)c(C)n2)c1C	-0.2
31	CCN(CC)c1ccc2cc(-c3nnc(-c4ccccc4)o3)c(=O)oc2c1	0.3
32	O=c1[nH]c(CN2CCN(c3ccc([N+](=O)[O-])cc3)CC2)nc2ccsc12	-3.3
33	Cn1cc(C2=C(c3ccc(Cl)cc3Cl)C(=O)NC2=O)c2ccccc21	0.2
34	COc1ccccc1Nc1nnc(SCC(=O)c2c(N)n(C3CC3)c(=O)[nH]c2=O)s1	0.4
35	Cc1ccc(C)c(OCCC(=O)OCC(=O)Nc2ccc(Cl)cn2)c1	-1.3
36	Cn1cccc1Cc1nnc(SCC(=O)NCC2CCCO2)n1C (stereo not given)	-0.9
37	Cc1ccnc(NC(=O)CCC(=O)N(CC(=O)NCc2ccccc2)Cc2ccc(F)cc2)c1	1.5
38	Clc1cc(Cl)c2nc(N3CCOCC3)sc2c1	0.7
39	Cc1ccc(-n2nc3c(c2NC(=O)c2ccc(OC(C)C)cc2)CS(=O)C3)cc1 (stereo not given)	-1.8
40	Cc1ccc(C(=O)Nc2ccccc2C(=O)O)cc1S(=O)(=O)Nc1ccc(Br)cc1	-0.6
41	Cc1c(NC(=S)NC(=O)c2ccco2)cccc1-c1nc2ncccc2o1	-1.7
42	COc1cccc(C(=O)Nc2c3c(nc4c2CCC4)CCCC3)c1	-0.7
43	CC(=O)Nc1cc(C)nn1-c1nc(C)cc(C)n1	-0.3
44	O=C1OC(=O)c2cc([N+](=O)[O-])ccc21	0.5
45	O=C(CSCc1ccccc1)NCCCN1CCOCC1	-1.7
46	CCOc1ccc2c(c1)/C(=N/N1C(=O)c3ccccc3C1=O)C(=O)N2	-0.1
47	O=C(CSc1ncnc2c1nnn2-c1ccc(F)cc1)NCC1CCCO1 (stereo not given)	0.2
48	COc1ccc(/C=C/C(=O)C2CC2)cc1COc1cccc(C)c1C	0.0
49	C/C=C/c1ccc(OCCCN2C(=O)NC(C)(C)C2=O)c(OC)c1	0.1
50	Cc1oc(CC(C)C)cc1C(=O)Nc1cccc2ccccc12	-0.5
51	Cc1cc(=O)oc2c3c(cc(OCC(=O)NCCCn4ccnc4)c12)OC(C)(C)CC3	0.0
52	CCCN(CCC)S(=O)(=O)c1ccc(C(=O)NCc2n[nH]c(=S)n2-c2ccc(Cl)c(Cl)c2)cc1	-1.6
53	Cc1noc(C)c1C(=O)Nc1sc(C)c(C)c1C#N	4.9
54	CCOC(=O)c1nnn(-c2nonc2-n2cccc2)c1CN1CCC(C(=O)OCC)CC1	0.4
55	O=C(NC1CCCC1)C1CCN(C(=O)c2cccc(Cl)c2)CC1	-1.7
56	COc1cc(OC)cc(-c2nc3nc(C)c(CCC(=O)NCc4ccco4)c(C)n3n2)c1	-0.2
57	COc1ccc2c(c1OC)CCC2=O	-0.8
58	O=C(Nc1ccc(F)cc1)c1ccc(C(=O)N2CCOCC2)cc1	-1.5
59	O=[N+]([O-])c1cc(Cl)ccc1NCCNS(=O)(=O)c1ccccc1	-1.6
60	CCOc1ccc(S(=O)(=O)Nc2ccc(C(=O)NCC(C)(C)N3CCOCC3)cc2)cc1	-2.4

Additional structures follow.
nr	SMILES	STK33 inh
61	CCC(=O)Nc1ccc(Cl)c(NC(=S)NC(C)=O)c1	1.5
62	Cc1cc(C)n(-c2ccc(NC(=O)C3CCCCN3C(=O)c3cc(C)oc3C)cc2)n1 (stereo not given)	-1.1
63	CCn1c(=O)c2c(nc3n2CC(C)CN3CCc2ccccc2)n(C)c1=O (stereo not given)	-3.6
64	Cc1ccc2nc(NC(=O)c3cccc(-c4cc5ccccc5oc4=O)c3)sc2c1	-0.3
65	CCOC(=O)N1CCN(C(=O)c2ccc3c(c2)N=C(CC)c2cc(C)ccc2S3)CC1	-0.5
66	CCOCCCNC(=O)c1ccc(OC2CCN(C(C)=O)CC2)c(OC)c1	-1.8
67	Cc1cccc(C)c1NC(=O)CN(C)C(=O)CCc1nc2sc3c(c2c(=O)[nH]1)CCCC3	-1.1
68	CC(=O)c1c(C)[nH]c(C(=O)Nc2ccc(Cl)cc2)c1C	0.1
69	COc1cccc(NC(=O)OCCN2CCN(Cc3ccccc3)CCC2=O)c1	-2.2
70	Cc1ccc(-n2nc(C)cc2Nc2ncc(Cl)cc2Cl)cc1	-2.0
71	NC(=O)COC(=O)CCCc1nc2ccccc2s1	-1.5
72	COc1ccc2c(c1OC)C(=O)OC2N1C(=O)CC[C@H]1C(=O)Nc1ccc2c(c1)OCO2 (stereo not given in full)	-1.2
73	CCOC(=O)c1[nH]c2ccc(OC)cc2c1C	-0.4
74	CCN(C(=O)COC(=O)c1cccs1)c1c(N)n(Cc2ccccc2)c(=O)[nH]c1=O	-1.6
75	O=S1(=O)CCN(Cc2ccccc2Cl)CC1	0.0
76	Cc1ccc(S(=O)(=O)N2CCC(=O)N(CCOCc3cccc(Cl)c3)CC2)cc1	-0.9
77	Cc1nn(C(C)C(=O)NCCC2=CCCCC2)c(=O)c2nn(-c3ccccc3)c(C)c12 (stereo not given)	-0.7
78	CC1=CC(C)(C)N(C(=O)CNC2CCCCC2)c2cc(C)ccc21	-0.1
79	COc1ccc2[nH]c(=O)c(C(c3nnnn3C3CCCCC3)N3CCN(C)CC3)cc2c1 (stereo not given)	0.1
80	CCN(CC(=O)Nc1c(F)cccc1F)C(=O)Cn1[nH]c(=O)c2ccccc2c1=O	-0.1
81	O=C(CSc1nnc(-c2cccnc2)n1CCc1ccccc1)NCc1ccccc1	-1.5
82	Cn1nnnc1SCC(=O)Nc1ccccc1C(N)=O	0.7
83	Cc1cc(C)c(S(=O)(=O)O)c(C)n1	6.0
84	Cc1ncc(S(=O)(=O)c2ccccc2)c(-c2ccccc2)n1	-1.1
85	CC(Sc1nc(N)cc(=O)[nH]1)C(=O)Nc1nc2c(s1)CCCC2 (stereo not given)	0.2
86	N#CC1(NC(=O)CN2C(=O)c3ccccc3C2=O)CCCCC1	4.7
87	Cc1ccc(SCc2cc(=O)n3ccsc3n2)c(C)c1	0.3
88	C/C(CC(=O)Nc1cc(C)ccn1)=N\NC(=O)c1cccc(F)c1	-0.5
89	COc1ccc(NC(=O)c2cc(-c3ccc(OC)c(OC)c3)nc3ccccc23)c(OC)c1	-0.1
90	CCCC1Cc2[nH]c(=O)c(C#N)cc2CO1 (stereo not given)	-0.1
91	CCc1ccc(-c2nn(Cc3ccccc3)cc2/C=C/C(=O)O)cc1	-0.5
92	CC(=O)c1c(C)[nH]c(C(=O)Nc2cc(C)cc(C)c2)c1C	-1.0
93	COc1cc(NC(=O)COC(=O)c2ccccc2SCC(=O)N2CCCC2)cc(OC)c1	-0.8
94	COc1ccc(C(=O)Nc2ccccc2)cc1S(=O)(=O)Nc1cc(C)on1	-4.5
95	COc1ccc(CNC(=O)c2cc(-c3ccccc3OC)on2)cc1	0.6
96	CCOC(=O)c1ccc2[nH]cc(C(C)=O)c(=O)c2c1	0.7
97	COc1cc(OC)nc(Oc2ccccc2C(=O)Oc2cccc(C)c2)n1	-0.5
98	O=C(Nc1ccc(-c2cscn2)cc1)C1CCCN(Cc2ccccc2)C1 (stereo not given)	1.4
99	CCN(Cc1ccc(C#CCCO)cc1)CC1CCCN(CCc2cccc(F)c2)C1 (stereo not given)	4.6
100	Cc1ccc(OCC(=O)NCC2CCCO2)c(C)c1 (stereo not given)	-0.5
101	COc1ccccc1C(=O)COC(=O)/C(=C/c1ccccc1)NC(C)=O	0.6
102	CC(C)CNS(=O)(=O)c1ccc(CCC(=O)N2CCN(c3ccccc3)CC2)cc1	-0.5
103	CCOC(=O)CSc1nnc(-c2ccc(Cl)cc2Cl)o1	0.2
104	Cc1cc(C)n(-c2ccc(F)cc2)c(=O)c1C#N	-0.4
105	COc1cccc([C@@H]2Oc3ccc(OC)cc3C(=O)[C@H]2O)c1	-0.2
106	Cc1cccn2c(=O)c(C=O)c(N3CCCCCC3)nc12	1.1
107	Cc1ccc2c(c1)N(CC(=O)NCc1cccs1)C(=O)C(C)O2 (stereo not given)	-0.8
108	C=CCn1c(SCC(=O)N(CC)C2CCS(=O)(=O)C2)nc2ccccc2c1=O (stereo not given)	1.1
109	COc1ccccc1C1C2C(=O)N(c3ccccc3)C(=O)C2ON1c1ccccc1 (stereo not given)	-0.1
110	COc1ccc(CNC(=O)c2sc(=S)n(-c3ccc(OC)cc3)c2N)cc1	2.6
111	CC1CN(C(=O)CCc2cc(C(C)(C)C)c(O)c(C(C)(C)C)c2)CC(C)O1 (stereo not given)	2.3
112	O=C(CC1C(=O)NCCN1CC1CCCCC1)NCc1cc(F)ccc1F (stereo not given)	-0.3
113	CCCCc1nc(Cl)c(C#N)c2c1CSC(C)(C)C2	-0.7
114	COc1cc(NC(=S)NC(=O)c2ccco2)ccc1NC(=O)C(C)C	0.5
115	Cc1ccc(S(=O)(=O)Oc2ccc(/C=N/NC(=O)c3ccncc3)cc2)cc1	-1.0
116	O=C(Cn1c(NCCO)nc2ccccc21)NCCc1ccc(F)cc1	-2.4
117	COc1cccc(OCCn2cccc2/C=C2/C(=N)N3OC(C)=CC3=NC2=O)c1	0.4
118	CCN1CCN(Cc2ccc(NC(=O)c3cc(NC(=O)c4ccc5n[nH]nc5c4)cc(OC)c3)cc2C(F)(F)F)CC1	-0.2
119	c1ccc(-c2ccc3ccccc3n2)cc1	0.7
120	Cc1sc2nc(CN3CCOCC3)nc(NS(=O)(=O)c3ccc4c(c3)OCCO4)c2c1C	-1.0

Structures shown so far with a cyano group, in the order listed:
nr	SMILES	STK33 inh
6	N#Cc1ccc(COC(=O)CSc2nnc(N)s2)cc1	-1.3
18	Cc1cc(C)c(C2C(C#N)=C(N)Oc3n[nH]c(C)c32)cc1CN1CCCC1 (stereo not given)	-0.2
53	Cc1noc(C)c1C(=O)Nc1sc(C)c(C)c1C#N	4.9
86	N#CC1(NC(=O)CN2C(=O)c3ccccc3C2=O)CCCCC1	4.7
90	CCCC1Cc2[nH]c(=O)c(C#N)cc2CO1 (stereo not given)	-0.1
104	Cc1cc(C)n(-c2ccc(F)cc2)c(=O)c1C#N	-0.4
113	CCCCc1nc(Cl)c(C#N)c2c1CSC(C)(C)C2	-0.7

The list goes on.
nr	SMILES	STK33 inh
121	O=C(C1CCC1)N1CCc2cc(S(=O)(=O)NC3CCCc4ccccc43)ccc21 (stereo not given)	1.0
122	CC(=O)c1ccc(NC(=O)CCC(=O)OCC(=O)c2cccc([N+](=O)[O-])c2)cc1	0.0
123	CCOC(=O)N1CCN(C(=O)CSc2nc3c(c(=O)n2-c2ccccc2OC)SCC3)CC1	-0.5
124	Cn1c(-c2sc3ccccc3c2Cl)n[nH]c1=S	-0.6
125	COCCOC(=O)C(CC(=O)O)NCc1ccco1 (stereo not given)	-0.1
126	CC(=O)Nc1ccc(/C=N/Nc2nc3ccccc3[nH]2)cc1	7.5
127	Cc1csc(=Nc2c(C)n(C)n(-c3ccccc3)c2=O)n1-c1ccccc1	-1.8
128	S=C(NCCc1ccccc1)N1CCCCC1	-0.3

From no. 121 to 122, as listed above:
nr	SMILES	STK33 inh
121	O=C(C1CCC1)N1CCc2cc(S(=O)(=O)NC3CCCc4ccccc43)ccc21 (stereo not given)	1.0
122	CC(=O)c1ccc(NC(=O)CCC(=O)OCC(=O)c2cccc([N+](=O)[O-])c2)cc1	0.0
